Sa growth inh – S. aureus growth inhibition at 42 and 30 °C, primary screen, LtaS inhibitor project, RN4220, two temperatures. OD600, 20 h, 42 °C; active compounds read low. relative growth, % (concentration not given with the values). 170,000 compounds, 0.53% hits;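 active = growth at 42 °C up to 50% and 20 or more points under that at 30 °C, or under 10% at both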;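 note: 300 nL library stock went into each well; scaled to the means of positive and negative controls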
GIV-Gai inh – inhibitors of GIV peptide binding to Galpha-i3, primary screen, biochemical, fluorescence polarization, FITC-GIV GBA peptide, rat Galphai3; 90 min; active compounds read low; scaled: aluminum fluoride 0%, vehicle 100%; percent of control (FP), % (concentration not given with the values); 210,000 compounds, 0.42% hits; AID 1224905, 2016;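 active = replicate mean at 85% of control or lower, very high polarization wells dropped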;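 note: wells of about 15 µL received 100 nL stock; the first replicate is given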
Target sequence (P08753 whole entry, looked up): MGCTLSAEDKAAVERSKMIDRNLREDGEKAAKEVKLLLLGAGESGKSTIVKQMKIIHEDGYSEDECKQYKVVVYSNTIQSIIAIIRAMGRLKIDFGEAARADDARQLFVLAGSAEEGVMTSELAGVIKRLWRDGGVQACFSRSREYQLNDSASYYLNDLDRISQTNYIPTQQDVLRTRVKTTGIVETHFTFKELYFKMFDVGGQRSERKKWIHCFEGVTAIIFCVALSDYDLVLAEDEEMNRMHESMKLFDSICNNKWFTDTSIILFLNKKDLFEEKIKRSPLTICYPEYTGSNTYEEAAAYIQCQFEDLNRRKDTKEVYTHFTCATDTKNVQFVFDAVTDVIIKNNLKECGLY
HCMV UL50-53 inh – inhibitors of HCMV UL50-UL53 interaction, biochemical, HTRF | normalized percent inhibition | inhibition, % (concentration not given with the values) | 190,000 compounds, 0.15% hits;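 active = both replicates at 50% or more, plus weaker picks with an unusually low signal ratio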;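 note: stock transfer was 100 nL into about 20 µL; 0% = negative control wells and 100% = wells with untagged competitor protein; inactives centre near -12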
Sa growth inh second temp – further read-out of Sa growth inh, marked with its call; relative growth, %; measured here: growth at 30 °C;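 optical density after 20 h as mean of two plates; 100% = untreated growth and lower means inhibition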
* marks the source's active call; other numbers are inactive results; . = not tested or not shown; & = joins results of further samples.

SMILES	Sa growth inh	Sa growth inh second temp	GIV-Gai inh	HCMV UL50-53 inh
COc1ccc(Cl)cc1NC(=O)Cn1nnc(C(=O)NCc2cccs2)c1N	117	74	106	-16
Cc1cccc(C(=O)NN(c2ccccc2)c2ccccc2)c1	104	117	.	-4
COc1ccc(Nc2nnc(-c3cc4cc(Cl)ccc4oc3=O)s2)cc1	93	89	101	-48
COC(=O)c1cc(C(O)(C(=O)OC)C(F)(F)F)c(N)s1 (stereo unspecified)	100	85	.	-28
CCOC(=O)c1[nH]c2ccccc2c1N	.	.	106	-52
CCC1CCCCN1C(=O)COC(=O)c1c2c(nc3ccccc13)CCC2 (stereo unspecified)	84	86	.	-36
CC(=O)SC1CC(=O)N(c2cc(Cl)cc(Cl)c2)C1=O (stereo unspecified)	85	74	107	6
CN(C)c1oc(-c2ccc(Cl)cc2)nc1S(=O)(=O)c1ccc(F)cc1	.	.	100	-12
CC(C)NS(=O)(=O)c1ccc(NC(=O)C2CC2C)cc1 (stereo unspecified)	101	96	100	-25
COc1ccc(-n2cc(C(=O)N(Cc3ccco3)C3CCCC3)c3ccccc3c2=O)cc1	92	98	105	.
Cc1nc2ccccc2nc1CSCC(=O)c1cc(C)n(C)c1C	96	96	.	-14
CC1(C)OC(=O)C(C2C3C4CC5C6C4CC3C6C52)C(=O)O1 (stereo unspecified)	99	100	.	-1
COc1ccc(CCNC(=O)C2CCN(c3nc4ccccc4nc3C(F)(F)F)CC2)c(OC)c1	81	93	104	.
CN(C)Cc1cc(C=NC2CCCCC2)c(S)s1	96	84	.	-20
Cn1c(SCC(=O)N2c3ccccc3OCC2c2ccccc2)nnc1-c1ccco1 (stereo unspecified)	88	91	.	-13
S=C(NCc1ccccc1)NN1CCCCC1	83	52	.	-10
Cc1ccc(CNC(=O)C2CCN(S(=O)(=O)c3ccc(F)cc3)CC2)cc1	86	82	108	-33
Cc1cc(-n2c(C)cc(C(=O)CSc3nc4ccccc4o3)c2C)no1	86	95	.	-7
Cc1ccc(-c2n[nH]c(S(C)(=O)=O)c2C#N)cc1	93	87	103	-13
CC(=O)N1CCc2cc(S(=O)(=O)NCCn3nc(-c4ccc(Cl)cc4)ccc3=O)ccc21	.	.	104	-82
Cc1ccccc1-c1nc(CS(=O)CC(=O)NCCc2ccc(Cl)cc2)c(C)o1 (stereo unspecified)	74	92	113	-16
CCc1ccc(-c2csc(Nc3ncccn3)n2)cc1	101	71	100	7
CN1CC(=O)NC1=NC(=O)C1CCCN(S(=O)(=O)c2ccc3c(c2)oc(=O)n3C)C1 (stereo unspecified)	108	88	106	.
CC1(C(=O)NC2CCCCC2)Cn2c(cc3sccc32)C(=O)N1CCc1ccc(Cl)cc1 (stereo unspecified)	.	.	97	-12
CCOC(=O)c1ccc(S(=O)(=O)N2CCN(/C=C/C(=O)c3ccccc3)CC2)cc1	77	93	.	-13
SMILES	Sa growth inh	Sa growth inh second temp	GIV-Gai inh	HCMV UL50-53 inh
CC(=O)n1c(O)c(N=NC(=O)COc2ccc(Cl)cc2)c2ccccc21	89	77	104	-23
c1ccc(-c2nnc3ccc(SCc4ccccn4)nn23)cc1	105	85	106	0
CN1C(=O)C(C)(C)c2cc(S(=O)(=O)NCCc3ccco3)ccc21	99	85	96	8
COC(=O)c1c(C)sc(-c2c(-c3ccc(Br)cc3)[nH]c3c2c(=O)[nH]c(=O)n3C)c1O	.	.	238	-24
O=C(N/N=C/C=C/c1cn(Cc2ccccc2)nn1)C1CC1	106	81	.	-60
CCn1c(C)nc2cc(OC)ccc21	93	101	.	18
COc1cc(NC(N)=S)c(OC)cc1Cl	103	92	102	-40
CCOC(=O)N1CCC(NC(=O)c2ccc3c(c2)N(Cc2ccc(Cl)cc2)C(=O)c2ccccc2S3(=O)=O)CC1	98	86	103	-24
CC1CCC(NC(=O)Cn2ncc3c4ccccc4n(Cc4ccccc4)c3c2=O)CC1 (stereo unspecified)	122	83	103	.
Cc1nc2nc(C3CCCCC3)nn2c(C)c1CC(=O)NC(C)C	.	.	97	-1
CC(=O)Nc1c(C)ccc(NC(=O)C2C(C=C(C)C)C2(C)C)c1C (stereo unspecified)	104	102	98	-7
C=CCn1c(=O)c2c(nc3n2CC(C)CN3c2cc(C)cc(C)c2)n(C)c1=O (stereo unspecified)	.	.	105	-34
Cc1cc(C(=O)N2CCN(c3ncccn3)CC2)c2cccc(-c3ccc(F)cc3)c2n1	.	.	106	-26
Oc1ccccc1C=Nc1ccc(N=Cc2ccccc2O)cc1	90	100	.	13
CCC1CCCCN1C(=S)Nc1ccc(OC(F)F)cc1 (stereo unspecified)	102	86	100	-26
COC(=O)C1=C(N)N(c2ccc(F)cc2)C2=C(C(=O)CC(C)(C)C2)C1c1ccccc1 (stereo unspecified)	106	87	.	-6
Oc1ccccc1-c1nnc(SCc2ccccc2)o1	58	59	103	-7
C=CCn1c(Cl)c(/C=N/NC(=O)c2cc(C)oc2C)s/c1=N\S(=O)(=O)c1cccs1	97	76	.	-16
COc1ccc(C(=O)c2coc3ccc(OC)cc3c2=O)cc1	113	84	.	-10
O=C(Cc1ccccc1F)Nc1nnc(C2CC2)s1	104	91	94	-19
Cc1cc(NC(=O)COC(=O)Cc2ccsc2)no1	103	92	.	-9
NC[C@H](O)c1ccc(O)c(O)c1	97&84&88	93&64&83	105&111&106	-24&-62&12&-12&-16
O=C(NCCC1=CCCCC1)c1n[nH]c(=O)c2ccccc12	102	89	99	.
O=C(O)c1cccc(C(=O)c2cccc(C(=O)O)c2)c1	95	80	98	-30
C=CCn1c(SCC(=O)/C(C#N)=C(\c2ccc(F)cc2)N2CCOCC2)nnc1-c1ccccc1	107	103	.	7
SMILES	Sa growth inh	Sa growth inh second temp	GIV-Gai inh	HCMV UL50-53 inh
O=C(NCc1nc2ccccc2n1Cc1ccc(Cl)cc1)c1ccccc1	102	65	100	.
CC1(C)CC(NC(=O)NC2CCCCC2)CC(C)(C)N1	79	95	.	0
Cc1cccn2c(=O)c(C(=O)NCCc3ccc(Cl)cc3)cnc12	77	96	97	.
COc1ccc(OC)c(NC(=O)CCN2CCN(Cc3cccc4ccccc34)CC2)c1	105	75	103	-36
C=CCN(CC=C)C(=O)C1c2ccccc2Oc2ccccc21	105	102	.	-6
C/C(=C\C(=O)Nc1cscc1C)C(=O)O	93	83	100	-28
CCC1(CC)Cc2ccccc2-c2[nH]c(=O)n(C)c(=O)c21	.	.	105	-4
CCc1ccc(Nc2ncnc3c2cnn3-c2cc(Cl)ccc2C)cc1	109	93	103	.
CS(=O)(=O)N1CCN(c2ncnc3c(-c4ccc(Cl)cc4)nsc23)CC1	110	76	102	-7
CCOc1ccc(S(=O)(=O)NCc2cccn2Cc2cccc(C)c2)cc1	87	89	101	.
COc1ccc2c3c(c(=O)oc2c1OCC(=O)C(C)(C)C)CCCC3	117	97	104	3
O=C(CCN1CCN(C2c3ccccc3-c3ccccc32)CC1)Nc1ccccc1F	99	99	104	.
O=C1c2cccnc2C(=O)N1Cc1ccc(F)cc1S(=O)(=O)N1CCc2ccccc2C1	.	.	101	3
O=C(Nc1ccncc1)c1cccc(COc2ccc3ccccc3c2)c1	1.1*	2.7*	103	.
Cc1nc2ccc(S(=O)(=O)NCC(=O)N3CCCC3)cc2s1	118	91	101	.
O=C(NCCCN1CCCC1=O)c1ccc2c(c1)OCCO2	118	105	101	-3
Cc1ccc2c(c1)cc(CN(C(=S)NCc1ccco1)C1CCCCC1)c1nnnn12	96	70	100	-6
CCC(=O)C1=C(c2ccc(C)cc2)N(C(=O)CC)n2c(nnc2C2CCCCC2)S1	117	87	99	.
COc1ccc2c(CNCCc3cccs3)c(C(=O)O)n(Cc3cccc(F)c3)c2c1	105	80	103	.
CCCNC(=O)c1ccc(Nc2ccc(-c3cccc(C)c3)nn2)cc1	.	.	105	19
Cc1ccc(S(=O)(=O)N2CCN(Cc3ccc4c(c3)OCO4)CC2)cc1	104	92	106&90	-35&-9
CC1(C)C=C(c2ccc(O)cc2)CC(C)(C)N1	91	91	104	-4
Cn1c(SCc2ccc3c(c2)OCO3)nnc1-c1ccccc1	88	90	.	-9
CCOc1ccccc1NC(=O)c1cccc2c1C(=O)N(Cc1cccnc1)C2	97	81	100	.
COc1cccc(NC(=O)CSCn2nnc3c(=O)[nH]c(Cc4ccc(F)cc4)nc32)c1	108	83	98	-24

Reprinted at random: seven compounds from above, in no set order.
SMILES	Sa growth inh	Sa growth inh second temp	GIV-Gai inh	HCMV UL50-53 inh
CS(=O)(=O)N1CCN(c2ncnc3c(-c4ccc(Cl)cc4)nsc23)CC1	110	76	102	-7
CC1(C)C=C(c2ccc(O)cc2)CC(C)(C)N1	91	91	104	-4
O=C1c2cccnc2C(=O)N1Cc1ccc(F)cc1S(=O)(=O)N1CCc2ccccc2C1	.	.	101	3
CCOc1ccccc1NC(=O)c1cccc2c1C(=O)N(Cc1cccnc1)C2	97	81	100	.
C=CCN(CC=C)C(=O)C1c2ccccc2Oc2ccccc21	105	102	.	-6
Cc1ccc2c(c1)cc(CN(C(=S)NCc1ccco1)C1CCCCC1)c1nnnn12	96	70	100	-6
O=C(NCCCN1CCCC1=O)c1ccc2c(c1)OCCO2	118	105	101	-3

2 entries from above, as labelled records:
COc1ccc(OC)c(NC(=O)CCN2CCN(Cc3cccc4ccccc34)CC2)c1
  Sa growth inh = 105
  Sa growth inh second temp = 75
  GIV-Gai inh = 103
  HCMV UL50-53 inh = -36

CCC1CCCCN1C(=S)Nc1ccc(OC(F)F)cc1 (stereo unspecified)
  Sa growth inh = 102
  Sa growth inh second temp = 86
  GIV-Gai inh = 100
  HCMV UL50-53 inh = -26

(further entries)
SMILES	Sa growth inh	Sa growth inh second temp	GIV-Gai inh	HCMV UL50-53 inh
COC(=O)c1ccc(NC(=O)CCc2c(C)nn(-c3ccc(N4CCCCC4)nn3)c2C)cc1	87	88	101	.
CCc1nn(CC(=O)NCc2ccc(C)cc2)c(=O)c2cc3occc3n12	101	89	100	4
COc1ccccc1NC(=O)CON	.	.	100	-17
O=C(Nc1ccc2nc(SCC(=O)N3CCc4ccccc43)sc2c1)c1ccccc1F	111	89	103	30
O=C(NN1CC(C(=O)OCc2ccccc2F)CC1=O)c1ccccc1 (stereo unspecified)	103	97	105	-22
CCc1ccccc1NC(=O)C1CCN(c2nc3ccccc3[nH]2)CC1	107	85	100	.
c1ccc(Nc2ncnc3ccccc23)cc1	96	85	.	-25
COc1cc2c(cc1OC)C(C)N(C(=O)CC(C)(C)CC(=O)O)CC2 (stereo unspecified)	96	83	101	-10
COc1cccc(NC(=O)CN(C)C(=O)c2ccc3c(c2)nnn3C)c1	.	.	100	-22
Cc1ccc(-c2ccccc2)n1-c1cccnc1	89	89	110	11
O=C1NCCN=C1c1cc(Cl)sc1Cl	81	90	.	-27
COc1ccc(Nc2cc(-c3ccccc3)nc3nncn23)cc1OC	84	63	104	.
COc1ccc(C2NC(c3ccc(OC)cc3)C(C)C(=O)C2C)cc1 (stereo unspecified)	96	85	109	.
CCSc1nnc(NC(=O)c2cccc(S(=O)(=O)N3CC(C)CC(C)C3)c2)s1 (stereo unspecified)	73	90	.	-18
Cc1ccc(Cl)cc1NC(=O)c1cccc(NC(=O)N2CCSc3ncccc32)c1	134	99	113	.
COC(=O)/C(C#N)=C/N(C)C	99	88	102	-26
CC(=O)Nc1ccc(SCC(=O)NC2(C#N)CCCCC2)cc1	87	78	.	-34
COc1cc(C(=O)n2c(SCc3ccc(F)cc3)nc3ccccc32)cc(OC)c1OC	95	94	.	13
Cc1ccc2cc(C3CC(c4ccco4)=NN3S(C)(=O)=O)c(=O)[nH]c2c1 (stereo unspecified)	117	87	105	.
CO[C@@H]1[C@@H](O[C@@H]2O[C@H](C)[C@@H](O[C@H]3C[C@@](C)(O)[C@H](O)[C@H](C)O3)[C@H](N(C)C)[C@H]2O)[C@@H](CC=O)C[C@@H](C)[C@@H](O[C@H]2CC[C@H](N(C)C)[C@@H](C)O2)/C=C/C=C/C[C@H](C)OC(=O)C[C@H]1O	21	20	.	-26
CCOc1ccccc1OC(=O)C(C)(C)C	97	104	98	-5
COc1cccc(N2CCN(C(=O)C3=NNC(=O)CC3)CC2)c1	98	86	.	-13
COc1ccccc1-c1cc(NC(=NCC2CCCO2)SC)n[nH]1 (stereo unspecified)	101	74	104	-13
CCOC(=O)c1sc(NC(=O)Cn2cnc3ccccc3c2=O)nc1C	.	.	100	-16
Cc1cccc(NC(=O)C2CCCN(c3ccc4cc(S(=O)(=O)N5CCCC5)ccc4n3)C2)c1 (stereo unspecified)	.	.	115	-6

Three of the entries above in order of their number in GIV-Gai inh, highest first.
SMILES,GIV-Gai inh
Cc1ccc(-c2ccccc2)n1-c1cccnc1,110
Cc1ccc2cc(C3CC(c4ccco4)=NN3S(C)(=O)=O)c(=O)[nH]c2c1 (stereo unspecified),105
COc1ccccc1-c1cc(NC(=NCC2CCCO2)SC)n[nH]1 (stereo unspecified),104

The results go on.
SMILES	Sa growth inh	Sa growth inh second temp	GIV-Gai inh	HCMV UL50-53 inh
COC(=O)c1sc(C(=O)OC)c2c1OCCO2	88	90	.	-24
CC(C)CC1(c2ccccc2)NC(=O)NC1=O (stereo unspecified)	97	92	.	-10
N#C/C(C(=O)c1ccccc1)=C1/SC=C(N)N1c1ccccc1	115	72	-51*	-26
Cc1nn2c(=O)cc(COC(=O)c3cccc(NC(=O)CCc4ccccc4)c3)nc2s1	78	76	104	.
COC(=O)c1nc2ccccc2nc1N1CCN(c2cccc(OC)c2)CC1	.	.	97	-60
S=C(NNc1ccccc1)Nc1ccccc1	64	50	105	-25

High-throughput results as filed in PubChem.
